Menin-MLL FL inh = inhibitors of human menin-MLL interaction, wild-type MLL peptide; Fluorescence polarization, fluorescein-MLL peptide displacement from menin; FP activity change, % at 61.4 µM; 290,000 tested, under 10 active; AID 1766; inconclusive = falling polarisation curve, or a change in total fluorescence; inactive = total fluorescence flat and polarisation flat or rising; no compound was filed as active; the % refers to the polarisation; negative = inhibition;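 also: % of control where 0% means no effect; inhibitors lower the polarisation; unlabelled MLL peptide was the positive control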
CtBP-E1A inh = CtBP/E1A binding inhibition; activity change, % (concentration not given with the values); AlphaScreen GST-E1A/His-CtBP binding, 1536-well; stronger effect = lower value; control for the full effect not named in the record; 340,000 tested, 0.49% active; in the data active means activity change below about -65%; inconclusive means about -30% to -65%; inactive means above about -30%; also: % is scaled to controls: 0 for no effect and ±100 for the full control effect
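In 5 uL wells, 23 nL compound meets equimolar GST-E1A and His-CtBP (5X stock 125 nM each) for 2 h, 37 °C. Beads (5X, 50 ug/mL) then 1 h, 37 °C, dark.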
gsp antag = gsp mutant antagonism. Potency, µM (series often up to 76.9 µM), inactives show top-dose activity change, negative = inhibition, hits mostly inhibitors. gsp-mutant cells, cAMP HTRF, 30 min; control for the full effect not named in the record. 340,000 tested, 0.4% active. AID 624288; active = falling curve of any shape with a large fitted effect; inconclusive = falling curve, mostly with a smaller effect; inactive = flat or rising curve; cell line not stated here;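 also: intracellular cAMP measured with PDE inhibitor Ro 20-1724 present during compound exposure; potency is read from the fitted curve at half-maximal effect; % is scaled to controls: 0 for no effect and ±100 for the full control effect; nearly all actives have a fitted effect of over 65% in size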
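G418-selected cells were plated in DMEM/10% FBS for 16-24 h at 37C, then treated with compounds plus the PDE inhibitor […] (300 uM solution added) for 30 min at 37C. Intracellular cAMP was measured by HTRF after 30 min lysis at room temperature.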
TRPV1 PAM = potentiators of human vanilloid receptor 1 (TRPV1). Q8NER1. TRPV1-expressing cells, Fluo-8 calcium influx, capsaicin EC20 potentiation; host cell line not named in the record; control for the full effect not named in the record. potentiation, % at 8.33 µM. 320,000 tested, 0.02% active. AID 540277; active means potentiation above 80%; inconclusive means 30% to 80%; inactive means below 30%; also: 0% is about no effect
Target sequence (Q8NER1 whole entry, looked up): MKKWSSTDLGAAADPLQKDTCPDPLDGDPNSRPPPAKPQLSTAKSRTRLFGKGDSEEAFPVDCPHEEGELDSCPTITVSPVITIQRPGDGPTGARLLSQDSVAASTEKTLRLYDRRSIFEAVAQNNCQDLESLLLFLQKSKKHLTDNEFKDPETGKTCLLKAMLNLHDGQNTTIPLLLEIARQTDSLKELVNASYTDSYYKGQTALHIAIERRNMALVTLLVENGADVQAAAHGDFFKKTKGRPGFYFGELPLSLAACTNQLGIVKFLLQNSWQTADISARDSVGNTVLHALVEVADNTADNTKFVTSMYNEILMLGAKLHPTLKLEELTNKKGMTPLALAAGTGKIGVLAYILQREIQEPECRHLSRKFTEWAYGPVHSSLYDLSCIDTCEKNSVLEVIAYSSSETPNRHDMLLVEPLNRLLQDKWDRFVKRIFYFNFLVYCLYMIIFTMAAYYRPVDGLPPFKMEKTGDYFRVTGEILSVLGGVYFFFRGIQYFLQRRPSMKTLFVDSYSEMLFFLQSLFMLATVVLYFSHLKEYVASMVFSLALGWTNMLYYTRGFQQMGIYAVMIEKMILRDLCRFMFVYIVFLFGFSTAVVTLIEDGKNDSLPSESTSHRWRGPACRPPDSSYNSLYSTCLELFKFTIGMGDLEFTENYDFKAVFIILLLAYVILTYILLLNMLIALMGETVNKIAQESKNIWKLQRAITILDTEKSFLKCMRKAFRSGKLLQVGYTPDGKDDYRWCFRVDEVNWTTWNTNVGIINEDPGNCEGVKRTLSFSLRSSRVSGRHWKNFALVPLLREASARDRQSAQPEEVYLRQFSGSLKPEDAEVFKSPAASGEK
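Fluo-8 calcium influx in TRPV1-expressing cells, kinetic read (ex 480/em 520 nm). Compound added and read 3 min for agonist activity, followed by capsaicin at EC20 final and 2 min further read for enhancement.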
Sfp PPTase inh = Sfp phosphopantetheinyl transferase inhibition; Q9F4F7; Biochemical Sfp PPTase activity, qHTS; Potency, µM, inactives show max response, negative = inhibition, usual class: inhibitors; 310,000 tested, 3.5% active; active = well fitted inhibition curve with a large enough effect; inconclusive = small, poorly fitted or top-dose-only effect, or another doubt; inactive = no such curve, though single readings can be large or run the other way;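 also: the enzyme is Sfp with the accession as filed and its product quenches rhodamine fluorescence; potency is read from the fitted curve at half-maximal effect; 0% = enzyme reaction without inhibitor and -100% = no enzyme wells; top concentration of the series not given in the record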
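With Hepes-Na pH 7.6 buffer containing 10 mM MgCl2, Sfp (15 nM) modified BHQ-2-YbbR (12.5 uM) using rhodamine-CoA (5 uM). Two reads 30 minutes apart at 525/598 nm yielded each well's rate.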
ClpP mod = qHTS Assay for Activators of ClpP. purified B. subtilis ClpP, FRET peptide cleavage, 20 min. Potency, µM (highest dose often 57.5 µM), without a hit: at the highest dose activity change, negative = active. 340,000 tested, 1.9% active; active = well fitted falling curve with a large enough effect; inconclusive = small, poorly fitted or top-dose-only effect; inactive = no such curve, though single readings can be large or run the other way; also: potency is read from the fitted curve at half-maximal effect; the source files actives as falling curves though it sought activators and does not explain the sign; nearly all actives have a fitted effect of over 65% in size; many hits overshoot -100%
Target sequence (P80244 whole entry, looked up): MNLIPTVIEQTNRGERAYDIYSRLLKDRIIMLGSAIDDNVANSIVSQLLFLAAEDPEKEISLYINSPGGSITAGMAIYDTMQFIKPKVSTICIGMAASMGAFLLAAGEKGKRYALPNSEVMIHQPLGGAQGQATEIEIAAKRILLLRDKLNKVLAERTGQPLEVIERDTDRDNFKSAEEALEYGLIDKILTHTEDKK
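ClpP 10 microg/mL final, pH 8 Tris/KCl buffer with BSA, glycerol, Tween-20; compound pinned in; FRET-FV substrate; RT 20 min; Ex320/Em430; ΔFRET vs ADEP 5.8 microM, DMSO, no enzyme.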
gsp ag = agonists of gsp mutant (McCune-Albright syndrome). gsp mutant cells, cAMP HTRF, 30 min; control for the full effect not named in the record. Potency, µM (series often up to 76.9 µM), inactives show top-dose activation (cAMP increase), hits mostly activators. 340,000 tested, 0.13% active. AID 624287; active = well fitted activation curve with a large enough effect; inconclusive = small, poorly fitted or top-dose-only effect, or another doubt; inactive = no such curve, though single readings can be large or run the other way; cell line not stated here;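 also: phosphodiesterase inhibitor Ro 20-1724 added with compounds to block cAMP breakdown; potency is read from the fitted curve at half-maximal effect; nearly all actives have a fitted effect of over 60% in size; about a fifth of the inactives were tested at one dose only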
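Cells in DMEM/10% FBS with G418 were pretreated with compounds in DMSO plus […] (300 uM stock) for 30 min at 37C. cAMP was measured by HTRF (cAMP-d2 plus anti-cAMP antibody-K) after 30 min at room temperature.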
* marks the source's active call; other numbers are inactive results; ? = inconclusive; nt = no result given; [ ] = another dose, or the depositor's remark.

SMILES	Menin-MLL FL inh	CtBP-E1A inh	gsp antag	TRPV1 PAM	Sfp PPTase inh	ClpP mod	gsp ag
Cc1nn(CC(=O)NCCN2CCOCC2)c(C)c1[N+](=O)[O-]	-3.3	-3	10%	-24	7%	1.6%	16%
CCOc1ccccc1NC(=O)c1ccc2c(c1)C(=O)N(CC)C2=O	-0.1	-22	3%	-9	17%	-2.0%	-8%[15.4 µM]
CCCCOC(=O)Nc1nc2ccccc2s1	1.2	9	20%	8	10%	-3.0%	-9%
CC(=O)c1sc(NC(=O)c2ccccc2F)nc1-c1ccccc1	1.8	-1	?	-5	?	nt	1%[15.4 µM]
Cc1cc2c(nn1)CCc1c-2no[n+]1[O-]	0.5	-11	7%	4	14%	nt	-6%[15.4 µM]
Cc1cccc(OCC(=O)NC2CCCc3ccccc32)c1C (centres undefined)	6.0	nt	1%	-10	-11%	-0.7%	2%
CCC(=O)NCCc1nc2cc(NC(=O)c3ccc(Cl)cc3)ccc2n1C	-0.2	-4	5%	-9	5%	nt	4%
CC1(C)CC(=O)C2=C(C1)Nc1nc(SCCN3CCOCC3)[nH]c(=O)c1C2c1cccs1 (centres undefined)	6.1	-2	7%	-23	-10%	32µM*	-15%
CS(=O)(=O)N(CC(=O)Nc1ccccc1Sc1ccccc1)c1ccc(F)cc1	0.0	-2	-26%	2	11%	-1.2%	-23%
O=C(Nc1ccc(OC(F)F)c(Cl)c1)Nc1ccc2c(c1)OCO2	3.1	23	?	1	0%	0.7%	1%
COc1cc(/C=N/NC(=O)C(=O)N2CCCCCC2)ccc1O	nt	-2	-1%	21	9%	0.0%	-1%[15.4 µM]
CCOC(=O)c1sc2ncn(CC(=O)Nc3cc(C)on3)c(=O)c2c1C	nt	-6	4%	2	nt	4.3%	14%
OC1(CC#CCN2CCCCC2)c2ccccc2-c2ccccc21	0.1	1	15%	3	13%	nt	-18%
O=C(NCCc1c[nH]c2ccccc12)C(=O)NCC(c1ccco1)N1CCN(c2ccccc2)CC1 (centres undefined)	1.9	2	-1%	5	12%	4.5%	-6%[15.4 µM]
O=[N+]([O-])c1ccc(O)c(C=Nc2ccc3oc(Cc4ccc(Cl)cc4)nc3c2)c1	-2.4	nt	nt	12	28µM*	nt	nt
CCOc1ccc2nc(NC(=O)C(CC)Sc3nc(C)cc(=O)[nH]3)sc2c1 (centres undefined)	0.8	-7	5%[15.4 µM]	4	-6%	-3.1%	-5%
COc1cc(CCC(=O)Nc2sccc2C#N)cc(OC)c1OC	5.2	-12	-2%	1	8%	nt	-6%
CC(=O)Nc1ccc(S(=O)(=O)NCC2CC3CCC2C3)cc1 (centres undefined)	nt	5	-9%	nt	nt	nt	-16%
COc1cccc(C(=O)N2CCC(n3nccc3NC(=O)C(OC)c3ccccc3)CC2)c1 (centres undefined)	-1.0	14	5%	3	2%	0.3%	-43%[inhibitor]
CCN(CC)C(=O)CSc1ncnc2sccc12	-1.0	3	12%	-10	22%	nt	?
CC(=O)/C(=C(/O)c1ccccc1)c1nc2ccccc2[nH]1	-8.8	-1	7%	18	19%	-2.5%	7%[15.4 µM]
CCOC(=O)c1c(N)c(C#N)c2n1CCCCC2	3.4	2	-8%	4	20%	-1.9%	-9%
CCCCN1CC(COCc2ccccc2)Oc2cccc(Oc3cc(C)c(C)c(C)c3)c2S1(=O)=O (centres undefined)	nt	0	6%	nt	nt	-0.7%	nt
O=C(Nc1ccccc1N1CCCC1)c1ccccc1F	-1.7	0	5%	-6	18%	nt	?
COc1ccc(C(=O)/C(=C/c2cccs2)c2nc3ccccc3o2)cc1	0.2	-14	-15%	-2	-6%	-1.4%	-17%
CNC(=O)CC12CC3CC(CC(C3)C1)C2	2.3	1	2%	10	15%	0.4%	-2%
O=C(CCN1CCC(c2ccccc2)C1)c1ccccc1 (centres undefined)	6.3	11	17%	-4	-7%	0.9%	-16%
O=[N+]([O-])c1cccc(Cl)c1NCCNc1ncc(C(F)(F)F)cc1Cl	4.2	-20	-12%	13	1%	1.3%	?
C[C@H]1CCCCO[C@H](CN(C)C(=O)Nc2ccc(F)cc2)[C@@H](C)CN([C@@H](C)CO)C(=O)c2cc(NC(=O)Nc3ccc4c(c3)OCO4)ccc2O1	nt	3	nt	nt	nt	-7.6%	?
Cc1cc(NC(=O)CSc2nnc(-c3cccnc3)n2Cc2ccccc2)no1	-2.3	-2	-1%	0	22%	3.2µM*	3%[15.4 µM]
O=S1(=O)CCC(NC(=S)N2CCCCCC2)C1 (centres undefined)	-0.1	14	3%	13	20%	-1.9%	-23%
FCCCOc1ccc(-c2ccnc3ncnn23)cc1	3.0	4	6%	10	4%	1.4%	10%[15.4 µM]
Cc1ccc(C)c(N2CCN(c3nc4ccccc4c(=O)n3Cc3ccccc3)CC2)c1	-0.4	0	-3%	nt	7%	-12%	3%
COc1cccc(/C=C2/SC(=S)N(CC(=O)NNC(=O)c3ccccc3O)C2=O)c1	-0.5	-13	-14%	0	7%	nt	4%
CCOC(=O)c1ccc(NC(=O)COc2ccccc2CNCCO)cc1	0.9	-2	-4%	-7	6%	0.9%	3%
CC1CCCCC1NC(=O)c1cc2ccccc2o1 (centres undefined)	-0.5	5	16%	-3	-14%	-8.1%	-8%

Overlap with the part before: 3 compounds, then new ones.
SMILES	Menin-MLL FL inh	CtBP-E1A inh	gsp antag	TRPV1 PAM	Sfp PPTase inh	ClpP mod	gsp ag
COc1cccc(/C=C2/SC(=S)N(CC(=O)NNC(=O)c3ccccc3O)C2=O)c1	-0.5	-13	-14%	0	7%	nt	4%
CCOC(=O)c1ccc(NC(=O)COc2ccccc2CNCCO)cc1	0.9	-2	-4%	-7	6%	0.9%	3%
CC1CCCCC1NC(=O)c1cc2ccccc2o1 (centres undefined)	-0.5	5	16%	-3	-14%	-8.1%	-8%
O=C(NN1CCN(Cc2ccccc2Cl)CC1)c1ccc(Br)cc1	0.9	24	nt	-25	33%[activator]	nt	15%[15.4 µM]
O=C(NCc1ccc(F)cc1)C1CCC(CNS(=O)(=O)c2ccccc2)CC1 (centres undefined)	-5.7	nt	6%	-4	6%	0.9%	-26%
CS(=O)(=O)N1CCN(c2ccc([N+](=O)[O-])c(NCc3cccnc3)c2)CC1	-0.1	-9	-16%	-6	-9%	nt	15%
Cc1cccc(NC(=O)CSCC(=O)Nc2ccccc2C(=O)N2CCCCC2)c1	nt	9	nt	nt	nt	-2.3%	-53%[inhibitor]
O=C(Nc1ccc(F)c(Cl)c1)c1ccc2c(c1)OCO2	-2.2	0	-13%	-14	-7%	0.1%	-1%[15.4 µM]
CN1CC2(C)CN(C(c3ccccc3)c3ccccc3)CC(C)(C1)C2O (centres undefined)	-2.3	-7	6%[15.4 µM]	-10	3%	1.0%	-7%
CCOC(=O)c1c(-c2ccncc2)csc1N	0.3	5	15%	20	-11%	-1.5%	-31%[inhibitor]
CCOc1ccc(CN(C)CC(=O)Nc2cc(C)c(C)cc2[N+](=O)[O-])cc1	-2.1	-18	-43%	-4	-19%	nt	9%[15.4 µM]
Cc1cccc(C2Nc3ccccc3C(=O)N2c2ccc(F)cc2)n1 (centres undefined)	1.1	-15	-5%	?	12%	32µM*	7%
OC12CCCCC1C(c1ccc3c(c1)OCO3)N(Cc1ccc(F)cc1)CC2 (centres undefined)	3.3	4	4%	-10	-9%	0.0%	17%
Cc1ccccc1Sc1ncccc1[N+](=O)[O-]	nt	?	7%	nt	nt	-3.6%	2%[15.4 µM]
O=S(=O)(c1cccnc1)N1CCn2cccc2C1c1ccccc1F (centres undefined)	nt	-5	-13%	-1	nt	-0.8%	-30%
CCOC(=O)C1CCCN(C(=O)c2cc(S(=O)(=O)N3CCCCC3)ccc2Cl)C1 (centres undefined)	nt	-5	-10%	-32	nt	-1.9%	-12%[15.4 µM]
COc1ccc(-c2cn(-c3ccc(C)c(C)c3)c(=S)[nH]2)cc1OC	7.0	-17	4%	-23	79µM*	-1.0%	19%[15.4 µM]
CCc1ccc(OCCOCC(O)CN(CCO)CCO)cc1 (centres undefined)	5.7	20	10%	19	1%	3.1%	?
Cc1nonc1CN(C)C(=O)c1ccc(OC2CCN(Cc3ccccn3)CC2)cc1	-2.8	0	-1%	-7	14%	-0.3%	?
O=C(/C=C/c1ccccc1)NCCS(=O)(=O)N1CCN(c2ccccc2)CC1	nt	-14	-12%	1	nt	-3.1%	0%
CC(C)N(C1=CC(=O)OC12CCCCC2)C(C)C	4.3	9	7%	-14	12%	nt	-4%[15.4 µM]
CN(CCOc1ccc(Cl)cc1)C(=O)c1ccc2c(=O)n3c(nc2c1)CCC3	nt	15	5%	0	nt	0.8%	13%
CC(=O)/C(=N/Nc1ccccc1C)N1CCOCC1	-2.8	-11	-4%	-4	5%	-5.0%	11%
Fc1ccccc1CNc1cc(Cl)cc(Cl)c1	8.2	32	-26%	-5	5%	-2.3%	1%
CC1=C(C(=O)N2CCCC(N3CCN(c4cccc(Cl)c4)CC3)C2)OCCO1 (centres undefined)	nt	-1	3%	8	6%	1.9%	10%[15.4 µM]
O=C(Nc1ccc(Cn2ccnc2)cc1)c1cccc(C(F)(F)F)c1	-3.2	2	5%	3	5%	1.6%	-42%[inhibitor]
CCn1c(C(=O)N2CCC(C(=O)N3CCN(c4ccccn4)CC3)CC2)cc2sccc21	2.8	-7	-18%	?	19%	-30%	-28%
CC1CCCN(C(=O)c2cc3c(=O)n4ccccc4nc3s2)C1 (centres undefined)	5.4	7	11%	9	12%	nt	?
CCN(CC(=O)Nc1ccccc1OC)C(=O)CCc1ccccc1	0.3	6	-3%	20	1%	nt	?
COc1ccccc1C(OC(=O)c1cccs1)C(=O)NCc1ccco1 (centres undefined)	9.6	9	-11%	2	50µM*	1.2%	-42%[inhibitor]
O=C(COc1ccc(/C=N/NS(=O)(=O)c2ccccc2)cc1)N1CCOCC1	-1.3	-8	0%	0	-12%	nt	-8%
CC(Sc1ncc(C(F)(F)F)cc1Cl)C(=O)NC(N)=O (centres undefined)	-1.1	-1	1%	-8	17%	nt	2%[15.4 µM]
Cc1ccc(C(=O)NCC(=O)N2CCCCCCC2)cc1	nt	nt	4%	5	nt	-3.3%	-2%

Screens as filed in PubChem.
